# GIV-Gai inh: blocks GIV peptide binding to rat Galpha-i3 | P08753 | Galpha-i3/FITC-GIV peptide fluorescence polarization, 90 min; hits give low values; scaled: aluminum fluoride 0%, vehicle 100% | percent of control (FP), % (no concentration beside the values) | actives 0.42% (n = 210,000);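 active means replicate mean at 85% of control or lower, very high polarization wells dropped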;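 further: wells of about 15 µL received 100 nL stock; the first replicate is given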
# Target sequence (P08753 whole entry, looked up): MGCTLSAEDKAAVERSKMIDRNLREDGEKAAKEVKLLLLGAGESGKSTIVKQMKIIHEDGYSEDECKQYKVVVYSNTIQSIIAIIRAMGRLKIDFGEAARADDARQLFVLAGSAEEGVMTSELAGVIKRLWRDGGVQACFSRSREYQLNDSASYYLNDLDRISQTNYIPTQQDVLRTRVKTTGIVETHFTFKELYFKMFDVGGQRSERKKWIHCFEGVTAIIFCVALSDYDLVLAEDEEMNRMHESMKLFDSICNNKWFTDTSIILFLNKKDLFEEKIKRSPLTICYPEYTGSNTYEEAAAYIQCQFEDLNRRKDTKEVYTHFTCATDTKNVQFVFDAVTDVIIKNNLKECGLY
# Sa growth 42C: S. aureus growth inhibition | relative growth, % (concentration not given with the values) | S. aureus RN4220 growth, OD600, 20 h, 42 °C; hits give low values | actives 0.53% (n = 170,000);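 active means growth at 42 °C up to 50% and 20 or more points under that at 30 °C, or under 10% at both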;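 further: 300 nL library stock went into each well; scaled to the means of positive and negative controls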
# HCMV NEC inh: inhibitors of HCMV UL50-UL53 nuclear egress complex interaction; inhibition, % (concentration not given with the values); actives 0.15% (n = 190,000); HTRF UL50-UL53 interaction, normalized percent inhibition;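 active means both replicates at 50% or more, plus weaker picks with an unusually low signal ratio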;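 further: stock transfer was 100 nL into about 20 µL; 0% = negative control wells and 100% = wells with untagged competitor protein; inactives centre near -12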
# Sa growth 42C second temp: also measured in Sa growth 42C; calls as there; relative growth, %; measured here: growth at 30 °C;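 optical density after 20 h as mean of two plates; 100% = untreated growth and lower means inhibition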
# Numbers without * were called inactive; · = not tested or not shown.
SMILES	GIV-Gai inh	Sa growth 42C	Sa growth 42C second temp	HCMV NEC inh
O=C1CC(N(Cc2ccc3c(c2)OCO3)C(=O)Nc2ccc(F)cc2)C(=O)N1c1ccccc1 (stereo not given)	103	103	104	-9
CCCC(=O)Nc1sc2c(c1C(N)=O)CCC2	120	99	61	-16
CC(=O)N1CCc2ccccc2C1CNC1=CC(=O)CC(C)(C)C1 (stereo not given)	·	92	82	-8
Cc1ccccc1NC(=O)Cn1c(=O)n(CCCC(=O)NCc2ccc3c(c2)OCO3)c(=O)c2ccccc21	104	105	88	-12
Cc1ccc(Cl)cc1-n1ncc2c(Nc3ccc4c(c3)OCCO4)ncnc21	109	108	85	·
CCc1ccccc1N1C(=O)N(Cc2cc(=O)n3ccccc3n2)c2ccccc2S1(=O)=O	87	87	86	·
O=C(O)c1ccc(OCC2CCCO2)cc1 (stereo not given)	·	101	86	-22
CCc1ccccc1NC(=O)CCn1cnc2cc(S(=O)(=O)N(C)C)ccc21	108	·	·	-40
Cc1ccc(NC(=O)Cn2nnc3sc4c(c3c2=O)CCC(C)C4)cc1 (stereo not given)	102	95	95	·
NC(=O)c1cc(-c2csc(-c3ccccn3)n2)ccc1O	·	91	97	-22
Cn1nc(C(=O)NCc2cccc(Cl)c2)c2c1-c1ccccc1S(=O)(=O)C2	103	123	95	-14
CCc1ccc(NC(=O)c2ccc(F)c(S(=O)(=O)NCCc3ccc(OC)c(OC)c3)c2)cc1	110	120	94	·
COc1cccc(C(c2sc3nc(-c4ccco4)nn3c2O)N2CCOCC2)c1 (stereo not given)	94	149	89	·
CCc1[nH]c(=S)c(C#N)c(-c2ccccc2)c1C(=O)OC	·	122	58	-8
Cc1ccc(-c2ccccc2N)o1	111	109	79	-5
COc1ccc(-c2nnc(SCC(=O)Nc3ccc(C)c(C)c3)s2)cc1	102	120	83	·

# Overlap with the part before: 2 entries, followed by the next part.
SMILES	GIV-Gai inh	Sa growth 42C	Sa growth 42C second temp	HCMV NEC inh
Cc1ccc(-c2ccccc2N)o1	111	109	79	-5
COc1ccc(-c2nnc(SCC(=O)Nc3ccc(C)c(C)c3)s2)cc1	102	120	83	·
N#Cc1c(NC(=O)CON2C(=O)CCC2=O)sc2c1CCCC2	109	108	94	-29
O=C(Cn1c(=O)n(Cc2ccco2)c(=O)c2oc3ccccc3c21)NCc1ccccc1	104	92	77	-25
Brc1ccc(CN2CCC(N3CCCCC3)CC2)cc1	105	99	100	-8
COc1ccccc1Nc1cc(C(=O)NCCCN(C)c2ccccc2)c2ccccc2n1	96	87	97	·
COc1ccc(S(=O)(=O)SC)cc1N	·	42	35	-40
CCOc1ccc(S(=O)(=O)NCc2cn3ccccc3n2)cc1	102	90	92	-9
O=S(=O)(NCC1CCCO1)c1ccc(Br)s1 (stereo not given)	104	100	99	-3
COc1cc(/C=C2\CCCCC2=O)cc(OC)c1OC	100	98	83	·
CCC(C)Sc1oc(-c2ccco2)nc1S(=O)(=O)c1ccc(Cl)cc1 (stereo not given)	98	84	79	4
CC(C(=O)N(C)Cc1ccccc1)N1CCN(S(=O)(=O)c2ccccc2C(F)(F)F)CC1 (stereo not given)	·	102	101	0
CC(=O)c1cccc(NC(=O)c2c(C)nn(-c3ccc(F)cc3)c2-n2cccc2)c1	110	111	92	·
COc1ccccc1CNC(=O)c1nc[nH]c1C(=O)NCc1ccccc1OC	104	·	·	-16
Cc1ccc(Cn2c(=O)n(CCCC(=O)NCc3ccccc3Cl)c(=O)c3ccccc32)cc1	100	98	109	15
C=CCNC(=O)C1CCN(S(=O)(=O)N2CCC(C)CC2)CC1	105	117	88	0
CCN(CC)C(=O)c1c(C)oc2ncn(CC(C)C)c(=O)c12	105	103	94	-21
O=C(Cn1cc(SCc2ccccc2)c2ccccc21)N1CCCCCC1	110	136	88	·
COc1ccc(CSc2nc3ncccc3[nH]2)cc1	101	102	91	·
Cc1ccc2oc(=O)c3cnn(CC(=O)N4CCC(C)CC4)c3c2c1	104	107	99	3
O=C(Cc1c[nH]c2ccccc12)Nc1cccc(-n2cnnn2)c1	·	87	63	-11
COc1ccccc1CNC(=O)c1cccn2c(=O)c3c4c(sc3nc12)CCCC4	111	·	·	-6
COc1cc(/C=C2\SC(=Nc3cc(C)cc(C)c3)NC2=O)ccc1O	129	·	·	5
O=S(=O)(N1CCCCC1)N1CCN(CC(O)COc2ccc3cc(Br)ccc3c2)CC1 (stereo not given)	105	109	103	-12
CSc1ncc(Cl)c(C(=O)Nc2ccc(S(=O)(=O)N3CCCCC3)cc2)n1	106	97	88	·
Cc1ccc(S(=O)(=O)N(CC(=O)NCCSc2ccc(Cl)cc2)c2cccc(Cl)c2)cc1	105	111	106	12
CCc1ccc(NC(=O)c2nc3nc(C)cc(C(F)F)n3n2)cc1	101	102	90	·
COc1ccccc1C(=O)NCCn1cc(SCc2ccc(C)cc2)c2ccccc21	102	79	78	-20
O=C(NCCN1CCOCC1)c1ccccc1Oc1ccccc1	·	92	88	-22
CCc1ccccc1Nc1nc(N)nc(COC(=O)Cn2cc(C(F)(F)F)ccc2=O)n1	·	74	84	-26
c1n[nH]c2c1CNCC2	104	105	92	-19
CC(C)CNC(=O)c1ccc(CSc2ncn[nH]2)cc1	·	95	85	-15
Cn1c(=O)c(-c2noc(C(=O)N3CCCCC3)n2)nn(-c2ccccc2)c1=O	102	·	·	-108
COc1ccccc1CNC(=O)c1cnc(N(C)C)nc1	105	92	89	·
Cc1nc(N2CCN(C)CC2)c2c(C)c(C(=O)O)sc2n1	106	·	·	1
CNC(=O)c1ccc(N2CCOc3ccc(Cl)cc32)s1	110	91	106	15
O=C(Oc1nsnc1N1CCOCC1)c1ccccc1	·	84	86	-18
Cc1ccc(S(=O)(=O)CCSc2nccc(-c3cccs3)n2)cc1	100	79	85	-19
CCOc1ccc(CCNC(=O)C2=C(C)C(=O)OC23CCCCC3)cc1	104	101	89	-24
CCOc1cc(CNC(=O)c2ccccc2NC(=O)c2nsc3ccccc23)ccc1OC	104	106	68	·
Cc1ccc(-c2nnc(Nc3ccc(S(=O)(=O)Nc4nccs4)cc3)c3ccccc23)cc1	110	·	·	17
Cc1ccc(OCC(=O)Nc2ccc(OCc3cc(=O)n4c(C)csc4n3)cc2)cc1C	102	106	84	11

# Pulled by structure from the list above (4):
SMILES	GIV-Gai inh	Sa growth 42C	Sa growth 42C second temp	HCMV NEC inh
Cc1ccc(S(=O)(=O)N(CC(=O)NCCSc2ccc(Cl)cc2)c2cccc(Cl)c2)cc1	105	111	106	12
Cc1ccccc1NC(=O)Cn1c(=O)n(CCCC(=O)NCc2ccc3c(c2)OCO3)c(=O)c2ccccc21	104	105	88	-12
CCN(CC)C(=O)c1c(C)oc2ncn(CC(C)C)c(=O)c12	105	103	94	-21
COc1cc(/C=C2\CCCCC2=O)cc(OC)c1OC	100	98	83	·

# Next results follow:
SMILES	GIV-Gai inh	Sa growth 42C	Sa growth 42C second temp	HCMV NEC inh
Nc1ccnn1-c1ccccc1	105	110	105	-5
c1ccc(-c2noc(NCCc3ccsc3)n2)cc1	106	·	·	-3
O=C(Nc1cccc2nsnc12)c1c(F)cccc1F	100	·	·	-48
CCc1cccc(N(c2nc(-c3ccc(OC)c(OC)c3)no2)c2nc(-c3ccc(OC)c(OC)c3)no2)c1	105	96	97	-6
CC1=C(C(=O)Nc2cc(Cl)ccc2C)C(c2ccco2)n2ncnc2N1 (stereo not given)	100	108	81	·
Cc1ccc(NCc2nc3ccccc3n2CCOc2ccccc2C)cc1	108	85	46	-11
Cc1cc(C)cc(OCC(=O)Nc2cccc(-c3nc4ccccc4[nH]3)c2)c1	105	78	63	10
CCOc1ccc(N=C2SC(C(=O)Nc3ccc(C)c(Cl)c3)CC(=O)N2C)cc1 (stereo not given)	104	·	·	-24
O=C(ON1C(=O)c2ccccc2C1=O)c1ccc(F)cc1	97	82	73	-59
CCOC(=O)N1CCN(c2ccnc3cc(Cl)ccc23)CC1	·	74	93	-35
O=C(c1cccs1)N1CC=C(c2ccccc2)CC1	·	128	91	2
O=C1CNC(=S)N1Cc1ccccc1Cl	113	83	94	19
COc1ccc(C2NC(=O)NC(C)=C2C(=O)OC2CCCC2)cc1Br (stereo not given)	105	·	·	3
O=S(=O)(Cc1ccc(F)cc1)Cc1noc(-c2ccc(F)cc2Cl)n1	105	96	93	-1
CCC(C)NC(=O)c1cc2cc3cc(OC)ccc3nc2o1 (stereo not given)	106	100	78	·
CCC1(CC)Cc2ccccc2-c2[nH]c(=S)n(Cc3ccccc3)c(=O)c21	108	102	78	·
Cc1ccc(S(=O)(=O)C2(C(=O)Nc3ncccc3C)CC2)cc1	·	95	86	-13
CCOc1ccc(N=C2SCCCN2C(=O)C2=CC=CN3CCS(=O)(=O)N=C23)cc1	·	107	94	-10
Cn1cc(Cl)c(C(=O)Nc2nc3ccc([N+](=O)[O-])cc3s2)n1	101	·	·	-17
O=C(Nc1ccc2nc3n(c(=O)c2c1)CCCC3)C1COc2ccccc2O1 (stereo not given)	102	110	71	-8
Cc1cc2ccccn2c1C(=O)Nc1ccccc1	·	87	93	-7
CCOC(=O)c1ccc(NC(=O)c2cc3cc(Cl)ccc3oc2=N)cc1	100	98	92	-16
COc1ccc(CC(=O)NC2CC2)cc1OC	103	95	98	-3
COc1cc(OC)c(NC(=O)CSC2=Nc3ccccc3N=C(c3ccc(F)cc3)C2)cc1Cl	105	86	95	·
NC(=O)c1cc(S(=O)(=O)NCc2ccc(Br)cc2)cs1	98	103	83	·
N#CCS(=O)c1ccccc1 (stereo not given)	103	98	88	-46
COC(=O)C1=C(C)NC(=O)CC1c1ccccc1I (stereo not given)	104	100	90	·
CCOC(=O)C1CCC(CN(Cc2c(Cl)cccc2Cl)S(=O)(=O)c2ccc(F)c(C)c2)CC1 (stereo not given)	105	100	91	·
COc1ccc(-c2noc(-c3ccc(N4CCC(C)CC4)c([N+](=O)[O-])c3)n2)cc1OC	102	89	88	-12
CC(C)(CNC(=O)c1ccc2nc[nH]c2c1)N1CCOCC1	·	95	98	-15
C/C(=N\NC(N)=O)c1ccc(C#N)cc1	·	73	90	-30
CCOC(=O)C1=C(C)NC2=C(C(=O)C(C(=O)OC)C(C)C2)C1c1ccccc1 (stereo not given)	97	108	87	·
NNC(=O)c1nnn(-c2nonc2N)c1CN1CCCC1	95	113	79	-23
Cc1ccc(C)c(N2CCN(C(=O)c3cc4c(=O)n(Cc5ccccc5)ccc4nc3C)CC2)c1	100	81	93	·
Cc1ccc(C)c(N2CCN(CCCNC(=O)Cn3ncc4c5ccccc5n(C)c4c3=O)CC2)c1	105	100	84	-30
CN1CCCN(C(=O)c2sc3ccccc3c2Cl)CC1	·	102	80	-36
Cc1nnsc1C(=O)N1CCC(C(F)(F)F)CC1	105	91	86	-34
CN(C)c1ccc(CNc2nc(-c3ccco3)nn2C(=O)c2cccc([N+](=O)[O-])c2)cc1	103	106	90	-38
O=C(Nc1ccc(Br)cc1)Nc1cc(NC(=O)c2ccc(F)cc2)ccc1N1CCCC1	98	·	·	-36
Cc1cc(CNC(=O)c2ccc(Cn3c(SCc4ccc(F)cc4)nc4cccnc43)cc2)n[nH]1	104	·	·	-11
Cn1cc(-c2nc(-c3ccc(Cl)cc3)no2)c(=O)c2cc(F)c(N3CCCCC3)cc21	99	·	·	-30
Cc1nn(CCC#N)c2c1P(=Nc1ccccc1Cl)(N1CCOCC1)N(C)C(c1ccccc1F)=N2 (stereo not given)	·	91	92	-8
COc1ccccc1N1CCN(S(=O)(=O)c2ccc(F)c(C(=O)Nc3ccc(Cl)cc3C(F)(F)F)c2)CC1	104	137	106	·
COc1ccc(-c2noc(N3CCC(C(=O)Nc4cccc(OC)c4)CC3)n2)cc1	96	111	83	·
CCC(C)N(C(=O)/C=C/c1cccs1)C(C)CC (stereo not given)	99	100	103	-21
Cn1c(=O)c2cc(C(=O)NCC3(c4ccccc4)CCCC3)sc2c2ccccc21	108	90	88	·
COc1ccc(/C=C2\SC(=N)N(c3ccc4c(c3)OCO4)C2=O)cc1	104	·	·	-35
O=C(NCCc1ccccc1)c1cc(-c2ccc3c(c2)OCO3)on1	99	87	91	-2
CC1=C(C(N)=O)C(c2cccnc2)n2nnnc2N1 (stereo not given)	·	92	87	-16
CCOc1ccc(N(Cc2nc3nc(C)cc(=O)n3[nH]2)C(=O)CC(C)C)cc1	106	·	·	-10
CCCSCCCNC(=O)c1ccc(NC(=O)N2CCSc3nc(C)cc(C)c32)cc1	108	·	·	6
O=C1NCCC/C1=N/Nc1ccccc1	105	102	86	-46
O=C(Cc1cc(=O)[nH][nH]1)N/N=C/c1cccc(Cl)c1Cl	101	85	77	-49
CCOC(=O)c1oc2c(c1C)-c1nn(Cc3cccc(Cl)c3)cc1CC2	101	108	90	-20

# High-throughput results from PubChem.
